Source: PubChem BioAssay (ICCB-Longwood Screening Facility, Harvard Medical School)
LANA-nucl inh = inhibitors of KSHV LANA-nucleosome binding, primary screen, biochemical, fluorescence polarization, FITC-LANA1-23, chicken nucleosomes; FITC-LANA1-23 / chicken nucleosome fluorescence polarization; active compounds read low; 0.3% of 51,000 active; z-score (test concentration not listed); AID 720717, 2013;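 active = both repeat wells score below -2 in polarization z-score versus plate sample wells, excluding overly bright wells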;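 note: 100 nL library stock added to about 30 µL; numbers are from one replicate; some results filed as inactive read as strong as hits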
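Test system: purified chicken nucleosomes with FITC-labelled LANA N-terminal peptide (1-23); Input: 240 nM purified chicken nucleosomes (480 nM peptide binding sites), final; Medium: TEN-BT buffer, pH 7.5; Timing: 10–45 min, room temperature; Technique: fluorescence polarization, 480 nm excitation, 535 nm parallel and perpendicular emission; Replication: duplicates.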
BasE inh = BasE siderophore enzyme inhibitors, primary screen, biochemical, Acinetobacter baumannii ATCC 17978, fluorescence polarization. purified BasE, fluorescence polarization binding displacement. inhibition, % (test concentration not listed). 0.1% of 84,000 active. AID 485350, 2010;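 active = both replicates above 25% with normal brightness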;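 note: 0% = negative plate control signal and 100% = positive plate control signal; stock transfer was 100 nL into about 30 µL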
The depositor's hits bear a star; / = not tested or not shown; & = joins results of further samples.

Every second line gives: LANA-nucl inh, BasE inh
Cc1ccc(N2C(=O)CC(C(=O)NC3(C)CCS(=O)(=O)C3)C2c2cccs2)cc1 (stereo not given)
    /, 0.1
Cn1cccc1C(=O)Nc1cc(S(C)(=O)=O)ccc1Cl
    /, 3.7
O=C(CCN1C(=O)c2ccccc2C1=O)Oc1c(-c2ccco2)oc2ccccc2c1=O
    0.066, 0.7
O=C(CN1C(=O)C2C3C=CC(C3)C2C1=O)OCC(=O)c1ccccc1 (stereo not given)
    -1.3, 2.5
CCOC(=O)N1CCN(c2cc(C(F)(F)F)nc3c(Cl)cccc23)CC1
    /, -0.2
CC1CCCCC1NC(=O)CSc1nnc(CC(=O)Nc2ccccc2Cl)n1C (stereo not given)
    -1.2, -1.1
COc1ccc(/C=C2\SC(=O)NC2=S)cc1OC
    -0.27, -0.6
CCn1c(O)c(C=NCC(c2ccc(OC)cc2)N(C)C)c(=O)n(CC)c1=S (stereo not given)
    /, 2.5
Cc1nc2cc(O)c(O)cc2s1
    -0.71, 3.3
COc1ccc(Nc2cc(N3CCCCC3)ncn2)cc1
    0.71, 1.6
COc1ccccc1N=Cc1sc2ccccc2c1O
    6.9, -44
Cc1nc(-c2ccc(S(=O)(=O)N3CCCN(c4ccc(C(F)(F)F)cn4)CC3)s2)cs1
    0.35, 3.5
CN(C)C(=O)CSc1nc(-c2ccccc2)c(-c2ccccc2)o1
    2, 1.0
CN1CCn2ccc3[nH]c(=O)nc1c32
    -0.23, 1.6
c1ccc(C2CC3CC(c4ccccc4)N2O3)cc1 (stereo not given)
    0.25, 1.1
CC1(C)CC(=O)C/C(=N/NC(N)=S)C1
    0.2, -1.7
CCn1cc(C(=O)OCC(=O)N2C(C)CCCC2C)c(=O)c2ccc(C)nc21 (stereo not given)
    /, -0.6
CC1CCCC(C)N1/N=C/c1ccccc1C(=O)O (stereo not given)
    /, 0.3
O=C1C2CC=CCC2C(=O)N1CC(=O)N(Cc1nnc(-c2ccc(Cl)cc2)o1)C1CC1 (stereo not given)
    /, 2.5
Cc1ccc(OCCNC(=O)C2CCCCC2)cc1
    -1.4, 1.8
CCS(=O)c1ccccc1C(=O)OCC(=O)NCc1ccc(C)cc1 (stereo not given)
    /, -1.1
O=C(Nc1cccc(-c2ccc3nncn3n2)c1)c1ccco1
    1.9, -2.4
COc1ccc(CSc2nnc(C)s2)cc1F
    2.4, -3.9
CN(C)c1ccc(/C=C2/SC(=Nc3ccccc3)NC2=O)cc1
    2.3, -2.7
CCS(=O)(=O)N1CCc2cc(OC)c(OC)cc2C1c1ccc(OC)c(OC)c1 (stereo not given)
    0.72, 2.5
Cc1nc2c(Br)cc(Br)cc2c(=O)n1Cc1cccs1
    /, 2.4
CCn1c(SCC(=O)NC(C)(C)C)nnc1-c1cccc(C)c1
    0.28, 0.7
CN(C(=O)Cn1nnc(-c2ccccc2Cl)n1)c1ccccc1
    /, 0.1
COc1cccc(NCc2nnc(SC(C)c3nc4ccccc4c(=O)[nH]3)n2C2CCCCC2)c1 (stereo not given)
    /, -3.2
O=C(CSc1nnc(Cc2ccccc2)o1)NCC(=O)Nc1ccc(F)c(F)c1F
    /, 3.2

Next part:
Every second line gives: LANA-nucl inh, BasE inh
O=C(Nc1ccno1)N1CCOCC1
    /, 2.9
O=C1c2ccccc2C(=O)N1CCCCn1c(=O)oc2ccccc21
    /, -2.7
CCn1c(SCCOc2ccc(OC)cc2)nnc1C(CO)NC(=O)c1ccc(OC)cc1 (stereo not given)
    0.2, -2.5
N#Cc1ccc(OCCOC(=O)Cn2cnnn2)cc1
    /, -0.5
N#C/C(=C(/O)CSc1ncnc2c1cnn2-c1ccccc1)c1nc2ccccc2[nH]1
    /, -1.3
O=C(Nc1ccc(SC(F)F)cc1)c1ccccc1C(F)(F)F
    /, -3.2
CCCC1CCc2nc3ccccc3c(C(=O)O)c2C1 (stereo not given)
    -0.92, 3.0
O=c1oc2ccccc2c(O)c1CN1CCCCC1
    -0.56, 5.1
CC(C)(C)c1cc2ncnc(N3CCCCC3)c2s1
    /, -2.0
Cc1ccc(N2C(=O)CC(C(=O)O)C2c2cccs2)cc1 (stereo not given)
    /, 1.3
CC(OC(=O)/C=C/c1cccc(Cl)c1)C(=O)N1CCN(C(=O)c2ccco2)CC1 (stereo not given)
    /, -1.0
Oc1ccc(C=Nc2cccc(C(F)(F)F)c2)c(O)c1
    2, -2.3
COC(=O)C1=C(NC(=O)c2cccc3ccccc23)CCS1
    0.4, 1.0
CC(NCCO)c1ccc2c(c1)OCCO2 (stereo not given)
    -0.76, -0.2
COc1ccc(CCN2CC(O)=C(c3nc4ccccc4c(=O)[nH]3)C2=N)cc1OC
    -0.55, -12
CCC1CCCCN1C(=O)COc1cc2oc(=O)c3c(c2cc1Cl)CCC3 (stereo not given)
    -0.83, 1.2
CCOCCCN1Cc2c(C(=O)OCC)sc3sc(C(=O)OCC)c(c23)C1
    -0.44, 2.6
Cc1ccc(NC(=O)CCN2CC(C)CC(C)C2)cc1 (stereo not given)
    -1.4, -5.1
CSc1ccccc1-n1nnnc1SCc1ccccc1
    -0.19, -1.2
COc1ccc(Cl)cc1NC(=O)Nc1ccc(N(C)C)cc1
    -1.4, /
Cc1ccc(C)c(NC(=O)C(NCC(C)(C)N2CCOCC2)c2ccccc2)c1 (stereo not given)
    /, 3.0
CC1Oc2ccc(N)cc2N(C)C1=O (stereo not given)
    0.36, 1.7
CCOc1ccc(Br)cc1S(=O)(=O)Nc1ncn[nH]1
    -0.63, -0.7
CCOC(=O)N1CCN(C(=O)C(C)Oc2ccc(C(C)(C)C)cc2)CC1 (stereo not given)
    -1.3, 1.7
CC1CCC(=O)C(C2(O)C(=O)Nc3ccccc32)C1 (stereo not given)
    -0.28, 3.8
CC1(C)N=C(c2ccc(Cl)cc2)C(=S)N1
    0.73, 0.0
Cc1ccc(N2C(=O)c3ccccc3C2(O)Cc2ccccc2)cc1 (stereo not given)
    0.18, 3.1
Cc1onc(-c2c(Cl)cccc2Cl)c1NC(=O)N/N=C/c1ccccn1
    -0.19, -0.2
COc1ccccc1/C=C/C(=O)N1CCCC(c2ccccc2)C1 (stereo not given)
    /, 0.0
O=c1oc2ccccc2cc1-c1nnc(-c2ccncc2)o1
    0.79, -0.3

Later entries
Every second line gives: LANA-nucl inh, BasE inh
O=S(=O)(Cc1ccccc1)n1cc(Cl)cn1
    0.43, 0.8
CC(C)c1ccccc1-n1cc[nH]c1=S
    /, 1.2
CCOc1ccc(OCCn2ccnc2)cc1
    -1.5, 1.4
CCOc1ccc(-c2n[nH]c(=S)n2C2C=CCCC2)cc1 (stereo not given)
    /, -0.2
Cc1cc(=O)[nH]c(N/N=C/C(C)c2ccccc2)n1 (stereo not given)
    -0.51, 2.0
O=C1Nc2ccccc2C1(O)C(F)(F)F (stereo not given)
    -0.032, 1.5
CCOCC(=O)Nc1ccc(OCC)cc1
    0.44, -2.0
CCS(=O)(=O)N1CCN=C1SCc1ccccc1
    -0.91, 0.3
CC(Sc1nnc(CC(=O)Nc2ccccc2)n1C)C(=O)Nc1nccs1 (stereo not given)
    0.6, 2.5
CCOc1ccc(CNC(=O)CCC(=O)N2CCOc3ccccc32)cc1
    0.5, 0.0
CCOc1nc(-c2ccc(Cl)cc2)nc2ccccc12
    /, 2.4
CCOC(=O)/C(C#N)=C/N1CCCc2ccccc21
    -0.092, -0.6
O=C(CCCc1c[nH]c2ccccc12)N1CCN(c2ccc(F)cc2)CC1
    0.26, -0.8
CCNC(=O)Oc1ccccc1
    /, 1.4
CCCC(=O)Nc1c2c(nc3ccccc13)N(c1ccccc1)CC2
    -0.56, 0.5
COCC1=C(C(=O)OC(C)OC(=O)OC(C)C)N2C(=O)[C@@H](NC(=O)C(=NOC)c3csc(N)n3)[C@H]2SC1 (stereo not given in full)
    0.41, /
COC(=O)c1ccc(C[N+]2(C)CCCCC2)cc1
    /, 0.3
O=C(Nn1c(Cc2ccccc2)nc2ccccc2c1=O)c1ccco1
    -0.03, -2.4
O=C(CSc1ccnc(=O)[nH]1)N1CCCCC1
    0.17, 0.2
O=C(CSc1nc2ccccc2s1)N=Nc1c(O)n(CN2CCCC2)c2ccccc12
    0.93, 1.8
Cc1onc(-c2ccccc2Cl)c1C(=O)NC(=S)NC1CCS(=O)(=O)C1 (stereo not given)
    /, 0.6
C/C(=N\N)c1ccc(OC(C)C)c(CN2CCOCC2)c1
    0.0055, 4.5
COc1ccc(/C(C)=N/NC(=O)CC2(C)OCCO2)c(OC)c1
    0.47, -0.7
CC(O)CNC(C)C(=O)Nc1c(Cl)cc(Cl)cc1Cl (stereo not given)
    /, -1.2
COc1ccccc1OCC#CCSc1ncccn1
    0.024, 1.0
O=C(Cn1cnc2ccccc21)N1CCCC1
    -1, /
C[C@]12CC[C@@H]3c4ccc(O)cc4CC[C@H]3[C@@H]1C[C@@H](O)[C@@H]2O
    0.051&0.079, -2.2
Cc1noc(C)c1NC(=O)NCC1CCN(S(=O)(=O)c2ccccc2)CC1
    2.8, -2.9
CCCN(CC(=O)Nc1ccccc1OC)CC(=O)c1c(N)n(Cc2ccccc2)c(=O)n(C)c1=O
    /, 1.0
COc1ccc(Cc2cc(-c3cccs3)n[nH]c2=O)c(OC)c1OC
    /, -1.0

Entries of single compounds as entered above. Values in the order: LANA-nucl inh, BasE inh
CCCN(CC(=O)Nc1ccccc1OC)CC(=O)c1c(N)n(Cc2ccccc2)c(=O)n(C)c1=O as listed: /, 1.0
CCNC(=O)Oc1ccccc1 as listed: /, 1.4

Next compounds.
Every second line gives: LANA-nucl inh, BasE inh
COc1ccc(N2CCN(C(=O)c3ccc(-n4cnnc4)cc3Cl)CC2)cc1
    -2*, 2.8
Cc1cc(=O)n2[nH]c(SCc3ccc(Cl)cc3)nc2n1
    1.8, -1.4
CC1(C)CCc2cc(CN3CCN(c4ccc(C(F)(F)F)cn4)CC3)ccc2O1
    0.27, 0.5
CC(C)(Oc1ccc(Cl)cc1)C(=O)Nc1ccc2oc(-c3cccnc3)nc2c1
    0.19, 1.3
COc1ccc(-c2cc(=O)oc3c(C)c(O)ccc23)cc1
    1.6, 0.5
CCc1cccc(NC(=O)C2CCCN(c3ncccn3)C2)c1 (stereo not given)
    -0.55, -0.8
COc1ccc(OCCOC(=O)c2ccc(OCc3c(C)noc3C)cc2)cc1
    /, 0.9
O=C(NCc1ccccc1Cl)c1cnccc1C(F)(F)F
    /, 3.0
C/C(=N\NC(=O)COc1ccc(C#N)cc1)c1ccc(N2CCOCC2)cc1
    /, 1.9
CCC(=O)Nc1cccc(NC(=O)CSc2nnnn2C2CCCC2)c1
    -1, -1.3
CC(C)(C)OC(=O)N1CCCN(S(=O)(=O)c2cc(Cl)ccc2Cl)CC1
    /, 4.0
Cc1nn(CC(C)C)c2sc(C(=O)N3CCCC3c3nc4ccccc4s3)cc12 (stereo not given)
    /, 14
CCc1ccc(C(=O)Nn2cnnc2)cc1
    1.2, -1.3
Cn1c(O)c(C=Nc2cccc(Cl)c2)c2ccccc21
    /, 0.5
C=CCn1cnnc1SCC(=O)NCc1cc(C)c(O)c(C)c1
    /, 0.4
Cc1nn(C)c(C)c1NC(=O)CC12CC3CC(CC(C3)C1)C2
    0.16, -0.4
O=S(=O)(c1ccc2c(c1)OCCO2)N1CCCCC1
    /, -1.5
O=C(COc1ncnc2sccc12)N1CCc2ccccc21
    /, -0.7
Cc1[nH]c(-c2ccc(F)cc2)cc1C(=O)NCc1ccccn1
    0.17, 2.2
CC(OC(=O)c1cc2sccc2n1C)C(=O)NCc1cccs1 (stereo not given)
    -1, 0.1
Cc1noc(C)c1CSCC(=O)OCn1nnc2ccccc2c1=O
    /, -0.8
CS(=O)(=O)N(CCc1ccccc1)CC(=O)N1CCc2ccccc2C1
    2.5, -2.4
COc1ccc(N=C2SCC(c3ccc(C)cc3)=NN2CCO)cc1
    /, 2.3
CC(C)Oc1ccccc1C(O)c1nnc(-c2ccccc2)o1 (stereo not given)
    /, -1.3
COc1ccc(-c2noc(-c3cc4ccccc4o/c3=N\NS(=O)(=O)c3ccc(OC)c(OC)c3)n2)cc1
    -0.81, -1.8
O=C(C1CCCCC1)N1CCN=C1SCc1cccnc1
    -0.27, 1.5
CCOc1ccc(Oc2c(/C=N/NC(N)=O)c(C)nn2-c2ccccc2)cc1
    /, -3.7
O=C(Cc1ccc(F)cc1)Nc1ccc(CN2CCCC2)cc1
    0.21, 2.7
Cc1nc2sccn2c(=O)c1S(=O)(=O)N1CC(=O)N(CCc2ccccc2)C(=O)C1
    0.088, 0.3
CS(=O)(=O)c1ccc2nc(NC(=O)c3ccc4nc[nH]c4c3)sc2c1
    /, 1.9
O=C(NCC(F)(F)F)c1ccc(N2CCCC2=O)cc1
    /, 1.5

By substructure, the compounds so far with a tert-butyl group
Every second line gives: LANA-nucl inh, BasE inh
CCn1c(SCC(=O)NC(C)(C)C)nnc1-c1cccc(C)c1
    0.28, 0.7
CC(C)(C)c1cc2ncnc(N3CCCCC3)c2s1
    /, -2.0
CCOC(=O)N1CCN(C(=O)C(C)Oc2ccc(C(C)(C)C)cc2)CC1 (stereo not given)
    -1.3, 1.7
CC(C)(C)OC(=O)N1CCCN(S(=O)(=O)c2cc(Cl)ccc2Cl)CC1
    /, 4.0

A portion of the library. The share of hits here may be higher or lower than overall.
